# Screens as filed in PubChem.
# Vif TR-FRET: inhibitors of Vif binding to APOBEC3G peptide, primary screen, biochemical, TR-FRET, GST-Vif 1-94, biotin-A3G peptide, dose response retest (AID 1117319). TR-FRET GST-Vif / biotin-A3G peptide binding; higher % means a stronger effect; test concentration not given here; strong numbers were not always called active. hit rate 0.57% among 260,000. Virion infectivity factor (Human immunodeficiency virus type 1 group M subtype B (isolate …. inhibition, %, or IC50 in µM where a hit was titrated;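 active = above the screen mean plus three standard deviations and confirmed in dose response; inconclusive = results disagree or hit not tested in dose response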;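 note: Vif residues 1-94 fused to GST binding biotinylated APOBEC3G peptide 110-148; 0% = full assay without inhibitor and 100% = GST in place of GST-Vif; retest series ran down from 100 µM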
# Ecoli growth: E. coli growth inhibition, primary screen, OD600; Escherichia coli growth, 23 h; hits give low values; OD600 absorbance (test concentration not listed); hit rate 0.21% among 330,000; AID 1053175, 2014;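 active = OD600 absorbance below the run mean of sample wells minus 3.6 SD, in any replicate, cut at about 0.56 in these data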;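 note: stock transfer was 300 nL into about 60 µL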
# HNF4A DNA FP: change in binding of human HNF4A to DNA, primary screen, biochemical, fluorescence polarization, FITC-DNA; Hepatocyte nuclear factor 4-alpha (Homo sapiens), P41235; 1 h; activity change, % at 10 µM; hit rate 0.3% among 360,000; in the data active = activity change above about 30%, passing the limit was not always enough;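 note: controls were the assay level and a saturating level of protein; the project sought stronger binding though the title names inhibitors; some compounds called inactive have numbers as strong as hits; positive values seem to mean higher polarization but the record does not say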
# Target sequence (P41235 whole entry, looked up): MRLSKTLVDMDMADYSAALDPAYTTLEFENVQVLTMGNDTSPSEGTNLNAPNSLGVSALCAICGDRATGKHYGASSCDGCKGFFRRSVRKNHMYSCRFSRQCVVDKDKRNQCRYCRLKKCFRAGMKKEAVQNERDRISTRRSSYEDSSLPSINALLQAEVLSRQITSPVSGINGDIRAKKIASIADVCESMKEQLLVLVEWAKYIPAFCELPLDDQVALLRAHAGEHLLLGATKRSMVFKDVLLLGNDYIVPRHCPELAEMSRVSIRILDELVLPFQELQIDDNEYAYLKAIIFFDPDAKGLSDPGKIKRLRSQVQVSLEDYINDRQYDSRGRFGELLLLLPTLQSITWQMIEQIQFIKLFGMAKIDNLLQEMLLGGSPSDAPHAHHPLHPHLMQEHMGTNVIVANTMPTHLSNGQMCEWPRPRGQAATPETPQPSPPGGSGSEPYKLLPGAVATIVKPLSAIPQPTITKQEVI
# FGF22 binding: binders of human FGF22 protein, primary screen, FGF22 synaptogenesis inhibitor project, biophysical, thermal shift, single point | Fibroblast growth factor 22 (Homo sapiens), Q9HCT0 | recombinant FGF22 thermal shift, SYPRO orange fluorescence; percent of sucrose octasulfate shift, DMSO zero | calls only at 9.99 µM | hit rate 1.5% among 340,000 | AID 651658, 2012;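 active = melting point raised past a set limit in the mean and every replicate; inconclusive = no clear call; three in four hits are not shown here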
# Target sequence (Q9HCT0 whole entry, looked up): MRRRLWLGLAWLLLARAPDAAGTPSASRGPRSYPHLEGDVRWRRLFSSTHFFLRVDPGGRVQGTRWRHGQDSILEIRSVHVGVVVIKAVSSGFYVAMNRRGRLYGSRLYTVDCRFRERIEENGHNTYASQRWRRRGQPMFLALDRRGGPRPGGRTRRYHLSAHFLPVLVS
# ALR inh: inhibitors of human ALR sulfhydryl oxidase, primary screen, biochemical, H2O2 detection, HRP-luminol luminescence, single point; purified ALR, DTT oxidation; hit rate 3.8% among 290,000; inhibition, % (concentration not given with the values); AID 485317, 2010; FAD-linked sulfhydryl oxidase ALR (Homo sapiens), P55789;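 active = mean and each replicate at 75% or more; inconclusive = only one of the two met; inactive = neither met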;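 note: stock transfer was 7.5 nL into about 7.5 µL; 0% = neutral wells and 100% = wells with inactivated enzyme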
# Target sequence (P55789 whole entry, looked up): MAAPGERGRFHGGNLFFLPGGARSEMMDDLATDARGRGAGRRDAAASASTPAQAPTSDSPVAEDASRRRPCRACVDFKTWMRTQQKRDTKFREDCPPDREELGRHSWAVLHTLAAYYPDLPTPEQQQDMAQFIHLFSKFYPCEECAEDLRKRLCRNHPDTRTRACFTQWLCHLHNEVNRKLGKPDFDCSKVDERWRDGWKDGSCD
# AF4-AF9 inh: inhibitors of AF4 peptide binding to AF9, primary screen, biochemical, AlphaScreen, biotin-AF4 peptide, FLAG-AF9, single point; Protein AF-9 (Homo sapiens), P42568; inhibition, % at 10 µM; hit rate 0.47% among 350,000; AID 651704, 2012;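 active = every replicate reaching a set inhibition limit, whatever the replicate mean, cut at about 25% in these data; inconclusive = mean inhibition reaches that limit but some replicates miss it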;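 note: 0% = plate neutral control median and 100% = total signal loss; the record names both 10 and 1 µM as test concentration; the first replicate is given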
# Ecoli rRNA inh: reduced GFP signal of wild-type E. coli, primary screen, bacterial rRNA inhibitor project, GFP/RFP fluorescence, OD600, single point. AID 720706, 2013. E. coli WT GFP vs humanized-ribosome RFP mutants, 24 h; hits give low values; DMSO median 0, no signal -100. hit rate 1.6% among 350,000. GFP signal change (wild-type ribosome), % (concentration not given with the values);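 active = significant combined selectivity score with lowered wild-type GFP, culture density cut under 30%, mutant RFP and density less affected; inactive = any of these conditions unmet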; note: one replicate is shown; some compounds called inactive have numbers as strong as hits
# Ecoli rRNA inh OD600: recorded beside Ecoli rRNA inh, whose call it bears; OD600 change, %; measured here: OD600 growth;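 optical density of the mix in the first replicate; 0 = DMSO median and -100 = no signal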
# Ecoli rRNA inh RFP: further read-out of Ecoli rRNA inh, marked with its call; RFP signal change, %; measured here: RFP humanized mutant strains;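 first replicate; 0 = DMSO median and -100 = no signal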
# Numbers without * were called inactive; i = inactive; ? = inconclusive; nt = no result given. These rows are one share of the data. The share of hits here may be higher or lower than overall.
SMILES,Vif TR-FRET,Ecoli growth,HNF4A DNA FP,FGF22 binding,ALR inh,AF4-AF9 inh,Ecoli rRNA inh,Ecoli rRNA inh OD600,Ecoli rRNA inh RFP
O=[N+]1C2=C(CCCC2)N([O-])C12CCCC2,?,0.7,-0.8,nt,-26,nt,nt,nt,nt
COc1ccc(CN(C)C[C@H]2OCCCC[C@@H](C)Oc3ccc(NC(=O)C4CCCCC4)cc3C(=O)N([C@@H](C)CO)C[C@H]2C)cc1,nt,nt,nt,i,nt,-7.0,1,-2,0.3
O=C(CSc1nccc(=O)[nH]1)c1c[nH]c2ccccc12,5%,0.68,-0.5,i,-6,-9.9,-5,0,-2.7
CC(=O)Nc1ccccc1NS(=O)(=O)c1ccccc1[N+](=O)[O-],-11%,0.69,-0.8,i,25,-3.5,0,8,-5.2
O=C(CCCc1nc(-c2ccc(Cl)cc2)no1)NCC1CCCO1 (configuration not stated),nt,0.66,7.5,i,-5,5.7,-2,-11,-1.3
Cc1nn(CC(=O)Nc2ccccc2C(F)(F)F)c(=O)c2cccn12,nt,0.71,3.2,i,-5,-0.4,11,10,3.2
C=CC[C@@H](Cc1ccc(F)cc1)C(=O)OC[C@@H]1CCCN1C(=O)[C@@H](CC=C)CC(=O)N[C@@H](CO)Cc1ccccc1,nt,nt,3.5,i,-3,1.1,-13,-32,32
C[C@@H]1CN([C@@H](C)CO)C(=O)c2cc(-c3ccc(C(=O)N(C)C)cc3)cnc2O[C@H]1CN(C)C(=O)c1cccnc1,nt,nt,nt,i,nt,0.9,0,4,-2.2
COc1ccc2[nH]c(O)c(N=NC(=O)Cc3cccs3)c2c1,-13%,0.68,0.6,i,nt,16,5,4,-0.2
COc1ccc(Cl)cc1NC(=O)CSc1ncnc2c1oc1ccccc12,18%,0.68,-1.6,i,-15,-0.9,8,8,0.4
NC(N)=NC1=NC(=O)C(Cc2ccccc2Cl)S1 (configuration not stated),nt,0.66,0.3,i,2,-1.6,nt,nt,nt
CCOc1ccc(NC(=O)C2C(C(=O)O)C3(Cl)C(Cl)=C(Cl)C2(Cl)C3(Cl)Cl)cc1 (configuration not stated),nt,0.66,1.6,nt,-3,-0.2,-57,-72,-18
CN(C(=O)c1ccc(NC(=O)C2CCCN(C(=O)OC(C)(C)C)C2)cc1)C1CCC1 (configuration not stated),nt,0.68,1.8,i,-22,-1.0,-2,-6,-5.5
CCCN1C[C@H](C)[C@H](OC)CN(C)C(=O)c2cc(NC(=O)c3ccc(F)cc3)ccc2OC[C@H]1C,nt,nt,nt,i,nt,-1.9,0,-7,-1.3
Cc1ccnc(NC(=O)Nc2ccc(Br)cc2Cl)c1,nt,0.72,6.3,nt,21,nt,nt,nt,nt
O=C1C(=O)N(CCS(=O)(=O)c2ccccc2)c2ccc(Cl)cc21,nt,nt,-7.5,i,0,3.7,-17,-13,-1.6
C=CCN1C(=O)C(=O)N(CC(=O)NCC(=O)Nc2ccc(F)c(F)c2F)C1=O,nt,0.72,-3.9,i,-5,0.9,9,15,-3.8
C[C@@H]1CN([C@@H](C)CO)C(=O)c2cc(NS(=O)(=O)c3ccc(Cl)cc3)ccc2O[C@@H](C)CCCCO[C@H]1CN(C)C(=O)c1ccccc1,nt,nt,nt,i,nt,-5.4,1,7,1.6
CCc1nnc(NC(=O)c2ccc(-c3ccccc3Cl)o2)s1,67%,0.72,0.7,nt,2,nt,nt,nt,nt
C[C@H](CO)N1C[C@H](C)[C@H](CN(C)C)Oc2ccc(NC(=O)Nc3ccc4c(c3)OCO4)cc2C1=O,nt,nt,nt,i,nt,1.1,1,5,-1.8
CCOC(=O)CCc1c(C)c2ccc(OCc3cc([N+](=O)[O-])ccc3OC)c(C)c2oc1=O,?,nt,nt,i,-2,-15,10,3,-2.1
COc1ccccc1NC(=O)NNC(=O)c1cc2ccccc2cc1O,nt,0.62,-3.0,i,10,-1.1,-16,-28,-7.8
CC(CNC(=O)C(C)C)NC(=O)C(C)C (configuration not stated),-4%,0.66,1.5,nt,-4,nt,nt,nt,nt
O=C(OCCN1CCCCC1)c1cccc(F)c1,nt,0.69,1.4,i,-14,-4.4,7,9,1.8
Cc1cccc(NS(=O)(=O)c2ccc(C3CCCCC3)cc2)c1,-1%,0.72,-3.3,nt,50,nt,nt,nt,nt
O=C1CSCc2nc3ccccc3n21,-9%,nt,-2.8,i,nt,-2.1,8,3,-0.5
C[C@@H]1CN([C@H](C)CO)C(=O)CCCn2nncc2CO[C@@H]1CN(C)Cc1ccccc1C(=O)O,nt,nt,nt,i,nt,-17,4,7,-0.2
CC(CCn1cccn1)NC(=O)CCc1nnc(CCc2ccccc2)o1 (configuration not stated),2%,0.69,-2.4,i,-16,-3.9,18,7,1.0
C[C@H](CO)N1C[C@H](C)[C@@H](CN(C)Cc2ccc3c(c2)OCO3)Oc2ccc(NC(=O)Cc3cn(C)c4ccccc34)cc2CC1=O,nt,nt,nt,i,nt,13,4,-3,21
CCCN(CC(=O)Nc1ccccc1OC)C(C)C(=O)NC(C)CCc1ccccc1 (configuration not stated),nt,0.65,2.5,i,nt,-0.5,2,-1,2.6
CCOC(=O)c1cc(NCc2cccs2)ccc1N1CCOCC1,15%,0.73,1.5,i,99*,6.3,-12,0,0.3
Cn1ccnc1SCC(=O)c1ccc([N+](=O)[O-])cc1,1%,0.65,-2.7,i,0,4.7,5,6,1.2
CCC(=O)Nc1ccc2c(c1)C(=O)N(C)C[C@H](OC)[C@@H](C)CN(CCc1ccccc1)[C@@H](C)CO2,nt,nt,nt,i,nt,2.5,-3,-2,2.1
Cc1ccc(Cc2c(-c3ccc(C#N)cc3)nc3c(C)cc(Br)cn23)cc1,nt,nt,4.2,i,nt,-0.3,5,10,29
CCOC(=O)c1oc2cc(O)ccc2c(=O)c1-c1csc(C)n1,20%,0.75,-0.7,nt,-5,nt,nt,nt,nt
Cc1cc(C)c2c(=O)n3c(nc2c1)C(Cc1ccc(O)cc1)NC(=O)c1cccnc1-3 (configuration not stated),14%,nt,-4.3,i,nt,4.0,-36,-44,-9.9
N#Cc1cccc(NC(=O)CCn2ccnc2)c1,5%,0.66,1.7,nt,-3,nt,nt,nt,nt
CN(C)CC1CCCCC1OC(=O)c1ccc(Br)cc1 (configuration not stated),-4%,0.74,-0.5,i,13,1.8,-3,-2,0.3
COc1ccc(C#Cc2ccc([C@@H]3[C@@H](CO)N4CCCCN(Cc5ccccc5F)C[C@H]34)cc2)cc1,nt,nt,nt,i,nt,29*,-60,-74,-10
CS(=O)(=O)Nc1cccc(C2=NN(C(=O)c3ccc(F)cc3)C(c3cccs3)C2)c1 (configuration not stated),-2%,0.62,0.2,i,0,4.0,-10,-29,1.8
O=C(CCCN1C(=O)/C(=C\c2ccccc2)SC1=S)N1CCOCC1,2%,0.71,2.9,i,-6,16,-21*,-7.1*,5.5*
O=C(c1ccco1)N1CCCC(c2nc3c(nnn3Cc3cccc(Cl)c3)c(=O)[nH]2)C1 (configuration not stated),nt,0.69,-1.1,i,0,0.0,-6,-22,3.3
COc1ccc(/C=N/NC(=O)c2ccc(CN3c4cccc5cccc(c45)S3(=O)=O)cc2)cc1,nt,nt,1.7,i,-3,-9.5,2,2,-0.2
CCN1CCSc2ccc(C(=O)Nc3ccc(NC(C)=O)cc3)cc21,-4%,0.72,-2.9,i,50,4.5,-12,-8,-2.7
O=C(c1cccs1)c1ccc(-c2cccs2)s1,-5%,0.69,4.8,nt,-9,nt,nt,nt,nt
O=C(N/N=C/c1cc([N+](=O)[O-])ccc1O)c1cc(-c2ccccc2)nc2ccccc12,nt,nt,3.8,i,-3,4.2,nt,nt,nt
CC(C)C(=O)Nc1ccc([N+](=O)[O-])cc1Br,22%,0.73,-2.4,nt,-7,nt,nt,nt,nt
Cc1ccc(CNC(=O)C(=O)NCC(c2ccco2)N2CCOCC2)cc1 (configuration not stated),nt,0.66,-0.7,nt,0,nt,nt,nt,nt
Cc1cc(C)nc(N2CCC(C(=O)NCc3ccccc3)CC2)n1,?,0.75,1.8,nt,nt,nt,nt,nt,nt
C[C@@H]1CN([C@H](C)CO)C(=O)c2cc(C#CC3CCCCC3)cnc2O[C@H]1CN(C)S(=O)(=O)c1cccc(F)c1,nt,nt,nt,i,nt,-1.8,1,0,-1.8
Nc1c(C(=O)NCc2ccccc2)sc2nc(N3CCOCC3)c3c(c12)CCCC3,28%,0.72,0.5,nt,-77,nt,nt,nt,nt
COc1ccccc1Cn1c(=S)[nH]c2ccccc2c1=O,-6%,0.69,-0.8,i,1,-0.8,-28*,-0.5*,3.4*
C[C@H](O)C#Cc1ccc([C@H]2[C@@H](CO)N3CCCCN(S(=O)(=O)Cc4ccccc4)C[C@H]23)cc1,nt,nt,nt,i,nt,0.9,2,12,-6.5
O=C(COC(=O)c1cc(Cl)ccc1O)Nc1ccc2c(c1)OCCO2,-2%,0.7,0.5,i,0,-0.2,5,19,3.2
S=C(NC1CCCC1)NC1CCCC1,-4%,0.71,-2.2,i,-4,-9.3,12,2,1.9
CC(C)c1nnc(NC(=O)COC(=O)/C=C/c2ccc([N+](=O)[O-])cc2)s1,3%,0.67,1.0,i,1,-2.1,5,10,-1.3
COc1cccc(C(=O)Nc2ccc3c(c2)OC[C@@H](C)N(CCc2ccccc2)C[C@@H](C)[C@@H](OC)CN(C)C3=O)c1,nt,nt,nt,i,nt,3.2,-5,-6,2.8
Cc1ccccc1NC(=O)Cn1cnc2c(oc3nc4c(cc32)COC(C)(C)C4)c1=O,-7%,0.68,-2.1,i,-1,-7.1,8,2,-1.1
COc1ccc2c3c([nH]c2c1)[C@H](CO)N(C(=O)Nc1ccc(F)cc1)CC31CN(C(=O)c2ccccn2)C1,nt,nt,nt,i,nt,-1.7,-3,-6,0.4
Cc1ccc(NC(=O)CCSc2nnc(C)o2)cc1,?,nt,-1.3,i,-4,-1.0,4,4,-1.7

# Given with each value named: entries from further up
Compound: COc1cccc(C(=O)Nc2ccc3c(c2)OC[C@@H](C)N(CCc2ccccc2)C[C@@H](C)[C@@H](OC)CN(C)C3=O)c1
  Vif TR-FRET = nt | Ecoli growth = nt | HNF4A DNA FP = nt | FGF22 binding = i | ALR inh = nt | AF4-AF9 inh = 3.2 | Ecoli rRNA inh = -5 | Ecoli rRNA inh OD600 = -6 | Ecoli rRNA inh RFP = 2.8
Compound: Cc1ccccc1NC(=O)Cn1cnc2c(oc3nc4c(cc32)COC(C)(C)C4)c1=O
  Vif TR-FRET = -7% | Ecoli growth = 0.68 | HNF4A DNA FP = -2.1 | FGF22 binding = i | ALR inh = -1 | AF4-AF9 inh = -7.1 | Ecoli rRNA inh = 8 | Ecoli rRNA inh OD600 = 2 | Ecoli rRNA inh RFP = -1.1
Compound: COc1ccc2c3c([nH]c2c1)[C@H](CO)N(C(=O)Nc1ccc(F)cc1)CC31CN(C(=O)c2ccccn2)C1
  Vif TR-FRET = nt | Ecoli growth = nt | HNF4A DNA FP = nt | FGF22 binding = i | ALR inh = nt | AF4-AF9 inh = -1.7 | Ecoli rRNA inh = -3 | Ecoli rRNA inh OD600 = -6 | Ecoli rRNA inh RFP = 0.4
